Screening results from PubChem BioAssay.
CSC inhib: blocks cancer stem cells. AID 2717. cancer stem cell-like cells viability, luminescence. inhibition, % at 7.5 µM. 300,000 tested, 1.1% active;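 active means mean at 75% or more and at least half the replicates too; inconclusive means mean and replicates disagree; tested in HMLE shEcad cells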;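 further: 0% = median of negative and 100% = median of positive control wells; the first replicate is given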
Rce1 inhib: inhibitors of yeast Ras-converting enzyme | calls only | yeast membranes, quenched prenylated peptide cleavage fluorescence | 290,000 tested, 0.27% active | Q03530;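 active means fall in fluorescence gain of 50% or more versus controls, with final raw signal at or below 3038400; inconclusive means same 50% fall but final raw signal above 3038400; inactive means fall in fluorescence gain under 50%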;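 further: plate controls were neutral control wells for no effect and wells lacking membranes for full effect; tested at 10 µM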
Target sequence (Q03530 whole entry, looked up): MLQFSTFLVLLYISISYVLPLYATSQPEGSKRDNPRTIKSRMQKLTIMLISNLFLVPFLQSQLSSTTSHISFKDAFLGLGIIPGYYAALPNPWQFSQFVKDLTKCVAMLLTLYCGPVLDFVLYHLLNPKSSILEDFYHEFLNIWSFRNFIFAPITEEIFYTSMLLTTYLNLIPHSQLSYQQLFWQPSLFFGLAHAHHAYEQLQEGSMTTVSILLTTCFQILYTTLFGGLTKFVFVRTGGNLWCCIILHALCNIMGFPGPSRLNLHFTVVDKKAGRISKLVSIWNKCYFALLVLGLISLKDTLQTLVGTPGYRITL
HIV Env fusion: inhibitors of HIV Env-mediated cell fusion | 360,000 tested, 1.1% active | AID 651610 | inhibition, % at 12.3 µM | HeLa-JRFL Env/CEM21 cell fusion, luciferase;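 active means mean replicate inhibition score of at least 50 and every replicate individually at or above 50; inconclusive means only one of the two criteria met; inactive means mean below 50 and not all replicates reaching 50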;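 further: 0% = plate neutral controls and 100% = maraviroc near 300 nM; one replicate is shown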
PABP FP inh: PABP-poly(A) binding inhibition. PABP-poly(A) RNA binding, fluorescence polarization. inhibition, % at 35 µM. 290,000 tested, 1% active;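 active means 50% or more with normal probe brightness, or confirmed in later tests; inconclusive means above 50% with abnormal brightness, or retests that disagree; inactive means below 50% or failed in later tests; about a fifth of its hits are not listed in these tables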;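 further: calls also rest on retests at 20 µM and on dose response follow-up; controls were probe without protein and protein plus probe with vehicle; some compounds called inactive have numbers as strong as hits; many hits fall short of the cut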
Target sequence (P11940 whole entry, looked up): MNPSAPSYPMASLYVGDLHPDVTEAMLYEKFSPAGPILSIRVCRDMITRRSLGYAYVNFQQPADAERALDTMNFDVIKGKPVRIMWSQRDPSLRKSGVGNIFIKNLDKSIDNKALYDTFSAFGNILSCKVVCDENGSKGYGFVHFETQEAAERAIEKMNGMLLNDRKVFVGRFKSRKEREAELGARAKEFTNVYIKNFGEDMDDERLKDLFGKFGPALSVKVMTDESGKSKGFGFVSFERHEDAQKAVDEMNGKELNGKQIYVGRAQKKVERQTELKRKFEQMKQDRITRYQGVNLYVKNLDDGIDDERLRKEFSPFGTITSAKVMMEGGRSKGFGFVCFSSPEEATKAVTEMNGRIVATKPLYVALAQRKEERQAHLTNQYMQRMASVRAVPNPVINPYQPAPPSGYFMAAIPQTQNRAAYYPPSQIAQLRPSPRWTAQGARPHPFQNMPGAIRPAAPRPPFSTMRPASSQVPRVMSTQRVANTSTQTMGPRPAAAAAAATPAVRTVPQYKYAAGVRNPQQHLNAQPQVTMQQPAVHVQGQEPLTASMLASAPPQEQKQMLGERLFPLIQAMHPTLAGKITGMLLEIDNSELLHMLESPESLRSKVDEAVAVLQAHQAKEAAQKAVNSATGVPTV
eIF4H inh: inhibitors of RNA binding by human eIF4H; eIF4H fluorescence polarization binding assay; inhibition, % at 35 µM; 290,000 tested, 0.94% active; AID 2012;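 active means 50% or more with normal probe brightness, or confirmed in later tests; inconclusive means above 50% with abnormal brightness, or retests that disagree; inactive means below 50% or failed in later tests; about a fifth of its hits are not listed in these tables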;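 further: calls also rest on retests at 20 µM and on dose response follow-up; 0% = protein and probe with vehicle and 100% = probe without protein; strong numbers were not always called active; many hits fall short of the cut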
MT1-MMP act inh: blocks activation of human MT1-MMP; P50281; 360,000 tested, 0.061% active; GFP/RFP ratio change, % at 20 µM; HT1080 RFP-PRO-GFP cells, GFP/RFP ratio fluorescence, overnight; percent of plate control window, DMSO zero;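 active means GFP/RFP ratio change of at least 30% with cell ATP level not reduced by more than half and red fluorescence within 50% of control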; further: strong numbers were not always called active
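Assay system: RFP-PRO-GFP reporter HT1080 cells; read-out basis: GFP/RFP fluorescence ratio; benchmarks: DMSO wells and RFP-L50D-GFP cells; doses: 20 µM single dose, 1% DMSO; schedule: overnight cell settling, then overnight compound exposure, 37 °C, 5% CO2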
UUG fidelity: modulators of start codon recognition fidelity in yeast; S. cerevisiae UUG-firefly luciferase reporter, luminescence/redox ratio; activity score, % at 18.7 µM; 350,000 tested, 0.13% active; AID 602363;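 active means replicate mean at a twofold rise or more, about +100% in these data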;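 further: firefly luciferase made from a UUG start codon reports start codon fidelity; reporter light over untreated wells divided by growth signal over untreated wells; some hits fall short of that in this replicate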
MT1-MMP act inh RFP: further read-out of MT1-MMP act inh, marked with its call; RFP signal change, %; measured here: RFP expression control read;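 0 = vehicle wells; hits needed this value within 50% of zero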
* marks the source's active call; other numbers are inactive results; i = inactive; u = inconclusive; x = no result given; & = joins results of further samples.

cpd | molecule | MT1-MMP act inh RFP | eIF4H inh | UUG fidelity | HIV Env fusion
1 | CN(C)S(=O)(=O)c1cccc(NC(=O)COc2nc3ccccc3nc2N2CCOCC2)c1 | 0 | 7 | 6 | x
2 | COc1ccc(NC(=S)N/N=C/c2cccn2Cc2ccc(F)cc2)cc1 | -10 | -4 | x | 17
3 | COc1ccc(S(N)(=O)=O)cc1C(=O)NNC(=O)CN(C)S(=O)(=O)c1ccc(Cl)cc1 | 1 | x | -13 | 6
4 | COc1ccc([N+](=O)[O-])cc1NC(=O)CCN1CCN(C)CC1 | 4 | -2 | x | -14
5 | O=C(Cc1cccs1)Nc1ccc(N2CCOCC2)cc1 | 8 | 4 | -22 | x
6 | N#CC(C#N)=CN=c1ccn(Cc2ccc(Cl)cc2Cl)cc1 | -30 | -3 | -2 | 35
7 | COC(=O)c1ccc(COc2ccc(NC(C)=O)cc2)o1 | 1 | 0 | x | 1
8 | CC(=O)c1cc2cccc(OC3(C)CCN(Cc4ccc(-c5ccccn5)cc4)C3)c2o1 (stereo unspecified) | -1 | x | -5 | 6
9 | CCOC(=O)c1cnc(C(F)(F)F)nc1Oc1ccccc1 | 0 | 2 | x | -38
10 | Cc1ccc(CN(C(=O)COc2cccc(C)c2C)C2CCS(=O)(=O)C2)o1 (stereo unspecified) | -3 | -11 | 0 | -1
11 | COc1cc(C=O)ccc1OCC(=O)Nc1ccc2c(c1)OCO2 | 1 | -15 | -10 | -24
12 | Cc1ccc(NC(=O)c2ccco2)c(NC(=O)COc2ccccc2)c1 | 2 | -4 | x | 18
13 | CCOc1ccc(N(C(=O)c2ccc3c(c2)OCO3)C2C=CS(=O)(=O)C2)cc1 (stereo unspecified) | 1 | -5 | -10 | 4
14 | O=C(CN1CCN(c2nc(-c3ccc(F)cc3)cs2)CC1)Nc1ccc2c(c1)OCO2 | -1 | -13 | -14 | x
15 | O=C(Nc1ccc(C(F)(F)F)cc1)c1ccccc1-n1cnnn1 | 1 | x | -17 | 8

cpd | CSC inhib | PABP FP inh | MT1-MMP act inh | Rce1 inhib
1 | -3 | -8 | -1 | i
2 | 5 | 5 | 3 | i
3 | -2 | x | 1 | x
4 | 12 | -5 | -4 | i
5 | -13 | 4 | 1 | i
6 | 11 | 3 | -14 | i
7 | -12 | -1 | -3 | i
8 | x | x | 1 | x
9 | -3 | 2 | 0 | i
10 | -12 | 8 | -6 | i
11 | -12 | 2 | 2 | i
12 | -22 | -5 | 2 | i
13 | -17 | -3 | -5 | i
14 | -4 | 2 | 3 | i
15 | x | x | 2 | x

Next results.
cpd | molecule | MT1-MMP act inh RFP | eIF4H inh | UUG fidelity | HIV Env fusion
16 | C[C@H]1CN([C@@H](C)CO)C(=O)c2cc(Br)cnc2O[C@H]1CN(C)C(=O)c1ccccn1 | 3 | x | -22&-10&25 | -9
17 | CN(CC(=O)Nc1ccccc1Cl)C(=O)C1CCN(C(=O)c2ccc(F)cc2)CC1 | 1 | x | -10 | 1
18 | COc1ccc(NC(=O)c2nc[nH]c2C(=O)N[C@@H](C)C(=O)OC(C)(C)C)cc1 | -5 | 4 | -6 | -16
19 | COc1ccc(CN(C(=O)c2cnccn2)C(C(=O)NC(C)(C)C)c2cc(OC)c(OC)c(OC)c2)cc1 (stereo unspecified) | 6 | -2 | -2 | x
20 | CCOc1ccccc1-c1cc(C(=O)Nc2ccc(C(=O)O)cc2)c2ccccc2n1 | -1 | 6 | 4 | -12
21 | CCCCCCC(O)(c1ccc(OC)cc1)C(CN1CCOCC1)c1ccccc1 (stereo unspecified) | -33 | -6 | -2 | 40
22 | NS(=O)(=O)c1cccc(NC(=O)c2cccnc2Oc2ccccc2)c1 | -6 | -2 | x | -10
23 | O=C(Cc1ccccc1)Nc1nc(-c2ccc(F)c(F)c2)cs1 | -10 | -7 | 7 | -5
24 | Cn1c(N)c(C(=O)COC(=O)[C@H](Cc2ccccc2)N2C(=O)c3ccccc3C2=O)c(=O)n(C)c1=O | -1 | -7 | x | 6
25 | O=C(CN1C(=O)NC2(CCCC2)C1=O)NCc1ccccc1 | -3 | x | -3 | x
26 | CN(C(=O)CSc1nnn(C)n1)c1ccccc1 | 4 | -6 | -11 | -90
27 | Cc1ccc(C)c(S(=O)(=O)NC(CCC(N)=O)C(=O)O)c1 (stereo unspecified) | 5 | -9 | -24 | x
28 | COc1ccc(Cl)cc1C(=O)NNC(=O)c1cc2ccccc2o1 | 6 | x | -19 | x
29 | O=S(=O)(Nc1ncccn1)c1ccc(Cl)cc1 | -3 | -3 | -3 | 2
30 | c1ccc(Cc2noc(CN3CCCC(CN4CCOCC4)C3)n2)cc1 (stereo unspecified) | -2 | -9 | -7 | 11

cpd | CSC inhib | PABP FP inh | MT1-MMP act inh | Rce1 inhib
16 | x | x | 0 | x
17 | 6 | x | 4 | x
18 | x | 13 | 12 | i
19 | -6 | 13 | 6 | i
20 | 4 | 2 | -2 | i
21 | 12 | 10 | -49 | i
22 | -11 | 5 | 1 | i
23 | 9 | -5 | -6 | i
24 | 2 | -7 | -4 | i
25 | -5 | x | 2 | x
26 | 2 | 6 | -2 | i
27 | -4 | -1 | 0 | i
28 | -8 | x | 4 | x
29 | -7 | 4 | -2 | x
30 | -4 | 14 | -1 | i

The listing continues:
cpd | molecule | MT1-MMP act inh RFP | eIF4H inh | UUG fidelity | HIV Env fusion
31 | CCCC1=Nc2cc(C(=O)NCCN3CCOCC3)ccc2Sc2ccccc21 | -2 | -6 | -6 | 4
32 | CC1(C(=O)NCc2ccccc2)Cc2c(-c3ccc(C(N)=O)cc3)ccnc2O1 (stereo unspecified) | -8 | x | -1 | 23
33 | Cn1c(=O)oc2cc(S(=O)(=O)NCCC(=O)NCc3ccccc3Cl)ccc21 | 2 | -9 | -14 | 5
34 | COc1ccc2c(c1)CC/C(=C/c1ccccn1)C2=O | -3 | 2 | -8 | -19
35 | CN1/C(=C\C(=O)COC(=O)CNC(=O)c2ccc3ccccc3c2)C(C)(C)c2ccccc21 | 10 | 28 | -11 | 11
36 | CN(CC(=O)Nc1ccc(F)cc1)C(=O)COc1ccccc1Cc1ccccc1 | x | x | -5 | 0
37 | O=C(c1ccc(Cl)c([N+](=O)[O-])c1)N1CCCc2ccccc21 | -3 | 1 | -5 | -5
38 | CSc1ccccc1NC(=O)c1ccc(Cl)s1 | 1 | -1 | -14 | -19
39 | O=C(Oc1cccc(NC(=O)c2ccccc2Cl)c1)c1ccc([N+](=O)[O-])cc1 | 2 | 36 | -34 | x
40 | CCCCCCCCNC(=O)c1ccc(C)cc1 | x | -2 | x | -2
41 | N=c1c(C(=O)NC2CCCC2)cc2c(=O)n3ccccc3nc2n1CCN1CCOCC1 | -8 | 7 | 474* | -65
42 | CCCCCC(NC(=O)C1CCN(C(=O)[C@@H](NS(=O)(=O)c2ccc(C)cc2)C(C)C)CC1)C(=O)O (stereo partly specified) | 5 | -11 | 7 | x
43 | O=c1c2cnn(-c3ccccc3)c2nc(-c2cccs2)n1-c1ccc(Br)cc1 | 2 | -4 | -8 | x
44 | Cc1onc(-c2ccccc2Cl)c1C(=O)Nc1nnc(C(C)C)s1 | 2 | -2 | -3 | -52
45 | COc1ccc(/C=C2\CC/C(=C\c3ccc(OC)cc3OC)C2=O)c(OC)c1 | 1 | u | -12 | -2

cpd | CSC inhib | PABP FP inh | MT1-MMP act inh | Rce1 inhib
31 | 23 | -9 | 2 | i
32 | x | x | 6 | x
33 | 0 | 1 | 0 | i
34 | -5 | 12 | -6 | i
35 | -7 | -10 | 12 | i
36 | 0 | x | x | x
37 | -12 | -3 | -2 | i
38 | -9 | -11 | 2 | i
39 | 2 | 21 | 1 | i
40 | -5 | 37 | x | i
41 | x | 2 | 6 | i
42 | -12 | 6 | 1 | i
43 | -7 | -6 | 0 | i
44 | -8 | 1 | -6 | i
45 | 7 | 3 | -137 | i

Part of the list above in order of length of the SMILES, ascending:
cpd | molecule | MT1-MMP act inh RFP | eIF4H inh | UUG fidelity | HIV Env fusion
29 | O=S(=O)(Nc1ncccn1)c1ccc(Cl)cc1 | -3 | -3 | -3 | 2
25 | O=C(CN1C(=O)NC2(CCCC2)C1=O)NCc1ccccc1 | -3 | x | -3 | x
8 | CC(=O)c1cc2cccc(OC3(C)CCN(Cc4ccc(-c5ccccn5)cc4)C3)c2o1 (stereo unspecified) | -1 | x | -5 | 6

cpd | CSC inhib | PABP FP inh | MT1-MMP act inh | Rce1 inhib
29 | -7 | 4 | -2 | x
25 | -5 | x | 2 | x
8 | x | x | 1 | x

The list continues:
cpd | molecule | MT1-MMP act inh RFP | eIF4H inh | UUG fidelity | HIV Env fusion
46 | Cc1cnc(C(=O)OCC(=O)Nc2oc(-c3ccccc3)c(-c3ccccc3)c2C#N)cn1 | 2 | -16 | -15 | -15
47 | CCOc1ccc(NS(=O)(=O)c2c(C)nc3sccn3c2=O)cc1 | -2 | -4 | -26 | -11
48 | CC1(C(=O)NS(=O)(=O)c2ccc(C#N)cc2)CCN1C(=O)C1(c2ccc(Cl)cc2)CC1 (stereo unspecified) | 2 | x | -4 | i
49 | COc1ccc(NC(=O)CCC(=O)N2CCCC2)c([N+](=O)[O-])c1 | -1 | 3 | -1 | x
50 | COc1ccc(NC(=O)Nc2ccc3c(c2)N(C)C(=O)CS3)cc1OC | 1 | 6 | 0 | -19
51 | CC(=O)Nc1nnc(SCc2cccc(F)c2)s1 | 0 | -3 | -16 | -5
52 | O=[N+]([O-])c1ccccc1S(=O)(=O)NCCC1=CCCCC1 | 4 | -2 | -16 | 2
53 | CC(C)NC(=O)COC(=O)C1CSC2(c3ccc(Br)cc3)CCC(=O)N12 (stereo unspecified) | 3 | 3 | x | -12
54 | CSc1nc2ccc(S(N)(=O)=O)cc2s1 | 6 | 5 | x | 2
55 | O=C(CCNS(=O)(=O)c1ccc(Cl)cc1)NCc1ccccn1 | 5 | 14 | -21 | x
56 | COc1ccc(C2=NN(C(=O)c3ccccc3)C(c3ccc(OC)c(OC)c3)C2)c(OC(C)=O)c1 (stereo unspecified) | -3 | -2 | 7 | -3
57 | Cc1ccc(NC(=O)CSc2nnc(-c3ccccn3)n2C)cc1 | 0 | -7 | -27 | 13
58 | C/C=C/C(=O)Nc1cccc(C2=NOC3(C2)C[C@@H](C(N)=O)N(C(=O)/C(C)=C/C)C3)c1 (stereo partly specified) | 3 | -2 | 12 | -12
59 | O=C(NCC(c1cccnc1)N1CCN(c2ccc(F)cc2)CC1)c1ccccc1 (stereo unspecified) | 2 | 3 | -1 | x
60 | CCOc1ccc(-n2c(SCc3nc(-c4cccs4)no3)nnc2-c2ccncc2)cc1 | 0 | -12 | 12 | 32
61 | C=CC[C@@H](CC(=O)NCCO)C(=O)N[C@H](COC(=O)[C@@H](CC=C)Cc1ccc(F)cc1)Cc1c[nH]c2ccccc12 | -4 | x | 13 | x
62 | COc1cccc(C(=O)OCC(=O)NC23CC4CC(CC(C4)C2)C3)c1 | 4 | x | 17 | 19

cpd | CSC inhib | PABP FP inh | MT1-MMP act inh | Rce1 inhib
46 | 3 | 2 | 5 | i
47 | -13 | 2 | 4 | i
48 | x | x | 0 | x
49 | 1 | 4 | -4 | i
50 | -14 | 43 | -1 | i
51 | -6 | -3 | -1 | i
52 | -3 | 2 | 9 | i
53 | 8 | 1 | 3 | i
54 | -6 | -4 | 0 | i
55 | -14 | 11 | 9 | i
56 | 3 | 3 | -11 | i
57 | 4 | -2 | 2 | i
58 | -6 | 11 | 0 | i
59 | -1 | -4 | 3 | i
60 | x | 1 | -4 | i
61 | 8 | x | -4 | x
62 | -10 | x | 2 | x

Rows are unselected; 3% or so of the library scored in one or more.
